INS promoter inh = inhibitors of insulin promoter-driven GFP, primary screen, imaging, TRM-6 cells (human fetal islet line), eGFP reporter, cell count; reporter expression induced with tamoxifen; inhibition, % at 2 µM; 0.9% of 130,000 active;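 active = inhibition above the mean plus 3 SD, with well images judged a real hit on visual review, cut at about 60% in these data, passing the limit was not always enough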
RGS16-Gao = modulators of RGS16 binding to Galphao, primary screen, biochemical, human proteins, multiplexed bead flow cytometry | Regulator of G-protein signaling 16 (Homo sapiens) + Guanine nucleotide-binding protein … | bead-based flow cytometry RGS16-Galphao binding, fluorescence; actives lie on both sides | binding response (% of control), % at 10 µM | 0.38% of 220,000 active;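 active = below 25% or above 175%, edge rows of some plates excepted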;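 also: Galphao activated by GDP with aluminum fluoride before binding; 100% = wells without compound and 0% = beads without RGS; some results beyond the cut were filed as inactive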
GALR2 ag = GALR2 receptor agonists, primary screen, cell-based. AID 803, 2007. activation, %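 (tested at 5 µM)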. GALR2-expressing cells, agonist activation read-out. 0.48% of 140,000 active;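 active = above mean plus 3 SD of all compounds, about 5% in these data, not always enough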;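 also: 0% = vehicle buffer wells and 100% = reference agonist at full effect; tested in CHO reporter cells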
HSV replic up = enhancers of HSV replication in host cells, fold increase, host cell viability; HSV replication augmentation in cells; maximum fold increase; 0.005% of 220,000 active;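 active = peak rise of 1.5-fold or more in the series; tested in PC3 cells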;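 also: first round at 10 µM; read as green reporter fluorescence; hits show the peak of a series up to 25 µM; 1 = signal of infected wells without compound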
PKD1 kinase inh = inhibitors of human PKD1 kinase, biochemical, fluorescence polarization; inhibition, %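 (about 10 µM by stock and volumes)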; PKD1 kinase fluorescence polarization assay; 0.056% of 200,000 active; Serine/threonine-protein kinase D1 (Homo sapiens), Q15139;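 active = inhibition of 50% or more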;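 also: controls were vehicle for no effect and a reference inhibitor for full effect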
Target sequence (Q15139 whole entry, looked up): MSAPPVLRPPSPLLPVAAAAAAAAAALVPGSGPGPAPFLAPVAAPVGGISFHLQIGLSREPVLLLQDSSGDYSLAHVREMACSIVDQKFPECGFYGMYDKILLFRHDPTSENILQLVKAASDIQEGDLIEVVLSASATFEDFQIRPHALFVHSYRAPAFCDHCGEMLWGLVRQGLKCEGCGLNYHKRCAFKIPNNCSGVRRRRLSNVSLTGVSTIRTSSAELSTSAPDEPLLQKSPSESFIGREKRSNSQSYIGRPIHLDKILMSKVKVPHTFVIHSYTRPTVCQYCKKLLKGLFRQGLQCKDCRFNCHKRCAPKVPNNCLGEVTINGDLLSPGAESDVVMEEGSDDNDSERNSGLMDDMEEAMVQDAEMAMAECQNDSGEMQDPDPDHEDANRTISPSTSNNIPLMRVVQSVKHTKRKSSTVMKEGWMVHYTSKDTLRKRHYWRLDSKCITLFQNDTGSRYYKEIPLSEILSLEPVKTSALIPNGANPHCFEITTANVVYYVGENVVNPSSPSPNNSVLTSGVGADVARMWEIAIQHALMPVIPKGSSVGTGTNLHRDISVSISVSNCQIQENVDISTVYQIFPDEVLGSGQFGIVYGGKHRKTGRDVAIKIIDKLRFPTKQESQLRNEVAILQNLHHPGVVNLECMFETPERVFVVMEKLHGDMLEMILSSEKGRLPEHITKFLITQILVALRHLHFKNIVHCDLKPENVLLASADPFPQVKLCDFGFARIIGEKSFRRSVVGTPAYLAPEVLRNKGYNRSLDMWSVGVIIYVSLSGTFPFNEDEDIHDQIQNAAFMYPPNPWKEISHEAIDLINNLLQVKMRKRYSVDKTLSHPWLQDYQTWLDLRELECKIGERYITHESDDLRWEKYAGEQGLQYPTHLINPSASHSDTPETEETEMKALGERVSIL
INS promoter inh cell count = also measured in INS promoter inh; calls as there; normalized cell count, %; measured here: cell count, toxicity; reference of the scale not given here;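 cells exposed to compound for 48 h; stained nuclei by imaging scaled within each plate; lower means fewer cells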
HSV replic up primary fold = second read-out of HSV replic up, no call of its own (marks repeat the call); fold increase; compound at 10 µM; measured here: primary screen fold increase 10 uM; tested in PC3 cells;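 GFP signal in the first replicate; 1 = infected wells without compound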
* hit, by the source's call; i = inactive; . = not tested or not shown.

SMILES	INS promoter inh	INS promoter inh cell count	RGS16-Gao	GALR2 ag	HSV replic up	HSV replic up primary fold	PKD1 kinase inh
CCc1nnc(NS(=O)(=O)c2ccc(NC(=O)c3cc(Cl)ccc3Cl)cc2)s1	31	89	100	.	i	1	-1
O=C(c1ccccc1F)N1CCN(c2ccc([N+](=O)[O-])c3ncccc23)CC1	-9	80	105	-0.4	i	0.92	-1
CC(C)(C)C(=O)/C=C(\N)c1ccncc1	-31	116	110	-2.3	i	0.92	-4
CC(=O)N1CCN(S(=O)(=O)c2ccc(S(=O)(=O)NC3CC3)cc2)CC1	19	79	107	-1.1	i	0.84	-4
CS(=O)(=O)c1ccc2nc(NC(=O)c3ccc(Cl)nc3)sc2c1	.	.	97	.	i	1	-4
Cc1ccc(CNC(=O)CN(Cc2ccccc2)S(C)(=O)=O)cc1	-148	106	106	-2.5	i	1	-5
Cc1c(-n2c(=S)[nH]c3ccccc3c2=O)c(=O)n(-c2ccccc2)n1C	14	121	103	-2.1	i	0.9	-3
COCCN1CN=C(Nc2nc3ccccc3o2)NC1	-47	53	108	0.6	i	0.93	-1
COc1ccc(C2SCCN2S(=O)(=O)c2ccccc2)cc1 (stereo unspecified)	-33	81	102	.	i	1	-6
Cc1ccc(C(c2nnnn2CS(=O)(=O)c2ccc(C)cc2)N2CCC(C(N)=O)CC2)cc1 (stereo unspecified)	.	.	105	-0.6	i	1	-13
CC(C)CN(CC(C)C)C(=O)Nc1ccc(F)cc1F	.	.	108	.	i	0.94	.
Cn1c(=O)c(=O)n(C)c2cc(S(=O)(=O)N3CCCCCC3)ccc21	.	.	99	-0.6	i	0.72	-6
CN(Cc1cc2ccccc2[nH]c1=O)C(=O)C1CCCCC1	.	.	79	-0.1	i	1	-4
CCCCCCC(=O)Oc1ccc(N2C(=O)CCC2=O)cc1	13	111	175	.	i	0.94	-5
Cc1nnnn1-c1cccc(C(=O)O)c1	-31	61	102	0.2	.	.	-6
COc1ccc(C2CC(=O)N(CCCN(C)CCc3ccc(OC)c(OC)c3)C2)cc1 (stereo unspecified)	7	81	111	.	i	1	3
CC(=O)Nc1ccc(SCC(=O)c2cc(C)n(C)c2C)cc1	-34	138	92	-3.3	i	0.99	1
CC(C)c1ccccc1NC(=O)C1CN(S(=O)(=O)c2ccccc2)CCN1S(=O)(=O)c1ccccc1 (stereo unspecified)	-23	137	102	-0.7	i	0.92	-9
C/C(=N\NC(=O)Cc1csc(N2CCOCC2)n1)c1ccccc1	-7	134	104	-1.3	i	0.92	-4
O=C(N/N=C/C=C/c1ccc2c(c1)OCO2)C(O)c1ccccc1 (stereo unspecified)	.	.	103	.	i	1.3	.

Single records, from the list above.
Shown for CS(=O)(=O)c1ccc2nc(NC(=O)c3ccc(Cl)nc3)sc2c1 = INS promoter inh: .; INS promoter inh cell count: .; RGS16-Gao: 97; GALR2 ag: .; HSV replic up: i; HSV replic up primary fold: 1; PKD1 kinase inh: -4
Shown for CC(C)(C)C(=O)/C=C(\N)c1ccncc1 = INS promoter inh: -31; INS promoter inh cell count: 116; RGS16-Gao: 110; GALR2 ag: -2.3; HSV replic up: i; HSV replic up primary fold: 0.92; PKD1 kinase inh: -4

The results go on.
SMILES	INS promoter inh	INS promoter inh cell count	RGS16-Gao	GALR2 ag	HSV replic up	HSV replic up primary fold	PKD1 kinase inh
CC(C)C(NC(=O)c1ccc2c(c1)OCO2)C(=O)N/N=C/c1cccs1 (stereo unspecified)	0	106	113	-1.3	i	0.87	-7
Cc1ccc(N(C(=O)CS(=O)CC(=O)Nc2ccc(F)cc2)C(C(=O)NC2CCCCC2)c2ccco2)cc1 (stereo unspecified)	-27	96	102	0.4	i	0.97	-1
COc1ccc(OC)c(-n2nnnc2SCC(=O)Nc2cc(C)ccc2OC)c1	-162	101	45	-2.8	i	1	6
CC(NC(=O)CCNS(=O)(=O)c1ccc2c(c1)c(=O)n(C)c(=O)n2C)c1ccccc1 (stereo unspecified)	-127	68	104	-0.4	i	0.93	-15
CC(C)c1nc(NCc2ccccc2)c(C#N)c2c1CCCC2	12	112	99	0.2	i	0.98	-4
c1ccc2cc(CSCc3nc4ccccc4[nH]3)ccc2c1	46	127	117	-1.2	i	1.1	0
COc1cc(/C(C#N)=C/c2ccccc2)c([N+](=O)[O-])cc1OC	63	68	100	-1.1	i	0.95	-6
CCOc1ccc2nc(SC3CC(=O)N(c4cccc(OC)c4)C3=O)sc2c1 (stereo unspecified)	7	100	114	-1.0	i	0.92	7
Cc1cc(OCC(=O)N2CCCC2)cc(C)c1Cl	-131	102	106	-1.7	i	0.96	0
Cc1ccc(OCc2nnc(SCC(=O)NCc3ccco3)n2C)cc1	-12	97	98	-1.3	i	1	0
CCOc1ccc(-c2nnc(-c3ccco3)o2)cc1	.	.	100	-2.9	i	1	-7
CCN(CC)CCN1C(=O)C2C3c4ccccc4C(c4ccccc43)C2C1=O (stereo unspecified)	.	.	104	.	i	0.82	.
Cc1ccc(/C=N/c2sc3c(c2C#N)CCCCC3)o1	.	.	106	-2.6	i	1	-2
O=c1cc(/N=C/c2coc3c(ccc4ccccc43)c2=O)[nH]c(=S)[nH]1	-7	123	100	-0.7	i	0.94	-6
Cc1ccccc1NC(=S)N1CCC(NC(=O)c2ccco2)CC1	-33	133	100	.	i	0.92	-2
CCc1ccc(OCc2nnc(SCCN3CCOCC3)n2CC)cc1	.	.	100	-1.8	i	1	1
O=[N+]([O-])/C=C1/CCCCCN1	-5	98	94	.	i	0.91	-8
O=C(Cc1cccc2ccccc12)NNC(=O)c1cccs1	.	.	96	-2.3	i	0.97	6
COC(=O)c1ccc(NC(=O)c2ccc(N(C)S(C)(=O)=O)cc2)cc1	60	100	94	-2.9	i	0.96	-6
COC(=O)/C=C(\C)N=Nc1c(O)[nH]c2ccccc12	.	.	103	.	i	1.1	.
CCN(CC(=O)Nc1sc2c(c1C#N)CCCC2)CC(=O)NC1CCS(=O)(=O)C1 (stereo unspecified)	27	125	100	.	i	1	-6
CC(C)CC1C(C#N)=C(N)OC2=C1C(=O)CC(c1ccccc1)C2 (stereo unspecified)	.	.	110	.	i	1	6
Cc1cc(C)c(NS(=O)(=O)c2ccc3c(c2)NC(=O)CC(=O)N3)c(C)c1	19	147	102	-0.6	i	0.92	10
O=C(/C=C\c1ccco1)Nc1nc(-c2ccccc2)cs1	.	.	74	-2.3	i	0.97	-8
O=C1c2cccc3c(Nc4ccccc4Cl)c([N+](=O)[O-])cc(c23)C(=O)N1CCO	11	99	106	-0.3	i	0.7	4
COc1ccccc1NS(=O)(=O)c1ccc(C)c(C(=O)NCC2CCCO2)c1 (stereo unspecified)	.	.	103	-0.6	i	1	-5
CC(=O)N1CCC(N(CCN2CCOCC2)C(=O)Nc2ccc(Cl)c(Cl)c2)CC1	.	.	.	-1.8	i	0.96	-15
O=C(O)c1ccc(C2NCC(c3ccccc3Cl)c3c2[nH]c2ccccc32)cc1 (stereo unspecified)	-29	112	100	.	i	0.99	-4
C=CCN1C(=O)C(O)(CC(=O)c2ccc(N)cc2)c2ccccc21 (stereo unspecified)	7	71	104	-1.1	i	0.92	-6
Cc1ccc(N=CNc2ccc(C)cc2C)c(C)c1	.	.	104	.	i	1.1	.
Cc1cc(NC(=O)CCN2C(=O)/C(=C/c3ccccc3Cl)SC2=S)no1	.	.	112	-1.2	i	1.2	-10
COc1ccc(C(=O)/C=C/c2ccc(OC)cc2OC)c(O)c1	.	.	98	.	i	1	9
CCOc1ccccc1NC(=O)N1CCN(S(C)(=O)=O)CC1	.	.	96	.	i	1	-1
O=C(Nc1nc2ccccc2s1)c1ccccc1	.	.	100	.	i	0.93	-3
Cc1ccc(-c2nc(Nc3ccccc3)n[nH]2)cc1	-220	95	99	-1.7	i	0.98	-8
COc1ccc(-n2c(-c3ccccc3)nc(=S)c3c2CCCC3)cc1	.	.	104	-2.0	.	.	-1
C[C@H](CS)C(=O)N1CCC[C@H]1C(=O)O	-19	102	99	-0.7	i	0.81	-1
O=C(Nn1cnnc1)C(c1ccccc1)c1ccccc1	.	.	101	-3.0	i	0.9	-10
COc1cccc(CNCC(=O)Nc2ccc(N3CCOCC3)cc2)c1	.	.	100	.	i	1.1	8
CCCCNC(=O)CCC(=O)NNc1nc2ccccc2c2nc(C)nn12	.	.	78	-0.1	i	1	-4
CC(NC(=O)Cc1ccccc1F)c1ccc(F)cc1 (stereo unspecified)	-45	129	113	.	i	0.96	2
C=CCOc1ccc(CNc2nccs2)cc1OC	46	130	101	-2.2	i	1.1	-8
Nc1nc2nc(-c3ccc(F)cc3)cc(C(F)(F)F)n2n1	.	.	83	.	i	1	-6
COc1ccc(-n2c(SCC(=O)NNC(=O)c3ccccc3C)nnc2-c2ccncc2)cc1	34	83	95	-0.6	i	1.1	-8
Cc1cc(Nc2ccc(C)c(Br)c2)n2nc(C)nc2n1	.	.	101	-0.4	i	0.97	5
COc1cccc(CNC(=O)CCC2CCCN(C(=O)c3cc(C4CC4)[nH]n3)C2)c1 (stereo unspecified)	.	.	100	.	i	0.87	-2
COc1ccc(-c2cc(CCCC(=O)N3CCN(c4ccc(OC)cc4)CC3)no2)cc1	.	.	99	-2.5	i	0.99	8
NC1=NC(c2ccccc2Cl)n2c(nc3ccccc32)N1 (stereo unspecified)	-7	138	99	-1.8	i	1.1	-14
Cc1ccc(/C=N/NC(=O)c2cccc(S(=O)(=O)Nc3cccc(Cl)c3)c2)o1	.	.	102	.	i	0.98	2
O=C1c2ccccc2C(=O)N1CCCCSc1nc2ccccc2c(=O)n1CCCN1CCOCC1	.	.	101	.	i	0.96	5
OCCn1nc2c3ccccc3nc-2n(-c2ccccc2)c1=S	42	140	95	-0.7	i	1.1	1
CCCCn1nnc(NC(=S)NC(=O)c2cccs2)n1	.	.	105	-0.5	i	1.2	-4
O=C(COC(=O)CC1CCCC1)Nc1ccc(OC(F)F)cc1	.	.	100	.	i	0.92	-1
Cc1cc2ncn(/N=C/c3ccc(-c4ccccc4)o3)c2cc1C	29	100	103	-1.8	i	1.1	-8
Cc1cc(-c2nnc(-c3ccccc3)c(-c3ccccc3)n2)c(C)o1	12	65	93	-2.6	i	0.89	-6
CCOC(=O)Cc1nnc(NC(=O)CSc2nnc3c4ccccc4n(C(C)C)c3n2)s1	0	108	98	-2.3	i	0.84	-8
CCOC(=O)C1C(c2cccnc2)NC(=O)NC1(O)C(F)(F)F (stereo unspecified)	.	.	94	.	i	0.95	6
CCN(CC)CCNC(=O)c1cc2c(-c3ccc(Cl)cc3)nn(C)c2s1	.	.	129	-0.5	i	0.5	-9
CSc1nnc(-c2ccc(Cl)cc2Cl)o1	11	299	100	-2.2	i	0.86	-8
COCCOC(=O)C1=C(C)NC(=O)NC1c1c(F)cccc1Cl (stereo unspecified)	.	.	108	-3.5	i	0.96	-7
(next part)
SMILES	INS promoter inh	INS promoter inh cell count	RGS16-Gao	GALR2 ag	HSV replic up	HSV replic up primary fold	PKD1 kinase inh
COC(=O)C1=C(C)N(c2ccc(Cl)cc2)/C(=C/c2cccs2)C1=O	-17	42	35	-0.7	i	1.1	1
CCOc1cc(/C=N/NC(=O)c2ccncc2)ccc1OS(C)(=O)=O	7	123	95	-1.8	i	1	-14
COCCSc1nnc(NC(=O)c2ccc(OC)c([N+](=O)[O-])c2)s1	.	.	101	.	i	1	-8
CSCCC(NS(=O)(=O)c1ccc(Cl)cc1)C(=O)OCc1cccc(Cl)c1 (stereo unspecified)	-18	129	105	-0.1	i	0.97	-6
CCC(OC(=O)c1cccs1)C(=O)NCc1ccco1 (stereo unspecified)	-19	157	101	-3.1	i	1	-9
Cc1nnc2sc(-c3cccc4ccccc34)nn12	.	.	99	-2.1	i	0.9	-12

Six entries from above, sorted by count of non-hydrogen atoms, smallest number first:
SMILES	INS promoter inh	INS promoter inh cell count	RGS16-Gao	GALR2 ag	HSV replic up	HSV replic up primary fold	PKD1 kinase inh
CCCCCCC(=O)Oc1ccc(N2C(=O)CCC2=O)cc1	13	111	175	.	i	0.94	-5
OCCn1nc2c3ccccc3nc-2n(-c2ccccc2)c1=S	42	140	95	-0.7	i	1.1	1
O=C(N/N=C/C=C/c1ccc2c(c1)OCO2)C(O)c1ccccc1 (stereo unspecified)	.	.	103	.	i	1.3	.
O=c1cc(/N=C/c2coc3c(ccc4ccccc43)c2=O)[nH]c(=S)[nH]1	-7	123	100	-0.7	i	0.94	-6
Cc1ccc(/C=N/NC(=O)c2cccc(S(=O)(=O)Nc3cccc(Cl)c3)c2)o1	.	.	102	.	i	0.98	2
COc1ccc(-c2cc(CCCC(=O)N3CCN(c4ccc(OC)cc4)CC3)no2)cc1	.	.	99	-2.5	i	0.99	8

From PubChem BioAssay
